Rango dissoc inh: qHTS Assay for Inhibitors of RanGTP induced Rango (Ran-regulated importin-beta cargo) - Importin beta complex dissociation | Potency, µM (series often up to 46.1 µM), inactives show at the highest dose activity change, negative = inhibition | hit rate 0.071% among 340,000 | Biochemical FRET Rango-importin beta, RanGTP-induced dissociation | Snurportin-1 (Homo sapiens) + GTP-binding nuclear protein Ran (Homo sapiens) + Importin …; active means falling FRET ratio curve, often poorly fitted, with flat reads before Ran was added; inconclusive means other falling curves, or compound fluorescence or quenching; inactive means flat or rising ratio curve;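 also: potency is read from the fitted curve at half-maximal effect; % of control where 0% means no effect; nearly all actives have a fitted effect of over 45% in size; -100% = wells without RanGTP and RCC1; the record marks most hits as doubtful in a second field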
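Recombinant Rango FRET biosensor (EYFP–snurportin 1 IBB–cerulean CFP10) at 0.1 uM premixed with 0.25 uM importin beta in PBS, 1 mM DTT, 0.02% Tween-20, 0.1% BSA. Compound added 5 min; RanGTP-RCC1 (0.6 uM Ran, 2 mM GTP, 0.2 uM RCC1) then triggers release, read at 45 min.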
GLA inh pH 4.5: qHTS Assay for Inhibitors of Human alpha-Galactosidase at pH 4.5 | activity change, negative = inhibition, % at 105 µM | purified enzyme, 4-MU-alpha-Gal fluorescence, pH 4.5 | 230,000 tested, under 10 active | AID 1467, 2008 | Alpha-galactosidase A (Homo sapiens), P06280; inconclusive = small, poorly fitted or top-dose-only inhibition, or a rising curve; inactive = flat fitted curve, though single readings scatter; no compound was filed as active;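 also: 0% = full activity with enzyme and -100% = basal without enzyme; dose as in the result columns while the protocol names 77 µM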
miR-21 reporter: qHTS Assay for Modulators of miRNAs and/orActivators of miR-21. HeLa miR-21 FLuc reporter, luciferase, 48 h. 340,000 tested, under 10 active. Potency, µM (doses to about 38.3 µM), for inactives: top-dose reporter change, positive = more light; active = well fitted rising curve with a large enough effect; inconclusive = small, poorly fitted or top-dose-only effect; inactive = no such curve, though single readings can be large or run the other way;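 also: % of control where 0% means no effect; miR-21 action dims this reporter so a rising signal means less miR-21 action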
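HeLa cells stably expressing CMV-driven firefly luciferase with a downstream miR-21 binding sequence, endogenously expressing miR-21, were treated with titrations (up to about 40uM final) for 48 hours at 37 degree Celsius. Luciferase luminescence was read after lysis.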
Rango complex inh: qHTS Assay for Inhibitors of Rango (Ran-regulated importin-beta cargo) - Importin beta complex formation; Rango CFP/YFP FRET sensor + importin beta, 45 min; Potency, µM (series often up to 92.2 µM), inactives show top-dose inhibition of complex formation; hit rate 0.031% among 340,000; AID 540263, 2011; active = rising FRET ratio curve, often small or poorly fitted; inconclusive = mostly compound fluorescence or quenching in the first reads; inactive = flat curves in all reads;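 also: potency is read from the fitted curve at half-maximal effect; 0% = DMSO wells and 100% = buffer wells lacking importin beta; nearly all actives have a fitted effect of over 15% in size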
Target sequence (Q14974 whole entry, looked up): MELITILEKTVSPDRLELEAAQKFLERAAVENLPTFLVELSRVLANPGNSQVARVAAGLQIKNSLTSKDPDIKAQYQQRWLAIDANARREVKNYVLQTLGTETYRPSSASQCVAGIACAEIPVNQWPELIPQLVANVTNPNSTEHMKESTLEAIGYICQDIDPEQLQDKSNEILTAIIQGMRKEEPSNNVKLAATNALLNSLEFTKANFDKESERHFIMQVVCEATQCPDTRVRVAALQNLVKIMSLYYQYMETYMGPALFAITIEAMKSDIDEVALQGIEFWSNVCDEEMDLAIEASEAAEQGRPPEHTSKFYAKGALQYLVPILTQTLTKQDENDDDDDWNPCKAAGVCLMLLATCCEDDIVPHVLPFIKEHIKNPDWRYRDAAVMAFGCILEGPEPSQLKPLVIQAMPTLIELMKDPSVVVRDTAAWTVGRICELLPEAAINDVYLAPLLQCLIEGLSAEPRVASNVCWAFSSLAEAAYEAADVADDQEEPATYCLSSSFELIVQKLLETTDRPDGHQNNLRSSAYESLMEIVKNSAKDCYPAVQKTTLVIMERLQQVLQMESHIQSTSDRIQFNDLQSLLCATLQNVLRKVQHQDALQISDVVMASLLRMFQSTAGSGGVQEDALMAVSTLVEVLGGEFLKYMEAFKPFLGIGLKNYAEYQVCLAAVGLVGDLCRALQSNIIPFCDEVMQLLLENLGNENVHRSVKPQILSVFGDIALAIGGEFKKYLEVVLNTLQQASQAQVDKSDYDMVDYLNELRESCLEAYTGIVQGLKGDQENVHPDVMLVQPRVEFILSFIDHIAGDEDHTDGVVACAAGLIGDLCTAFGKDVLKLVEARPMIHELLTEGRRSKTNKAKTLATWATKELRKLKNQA
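Inhibition scored from the CFP 486 nm/YFP 530 nm FRET ratio 45 min after adding 0.125 microM importin beta to 50 nM Rango biosensor preincubated 5 min with compound (room temperature, PBS with DTT, Tween-20, BSA). No-importin wells as positive control.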
Active calls of the source: *; ? = inconclusive; . = not tested or not shown; [ ] = another dose, or the depositor's remark. A portion of the library, so the mix of outcomes need not match the whole.

Rango dissoc inh	GLA inh pH 4.5	miR-21 reporter	Rango complex inh	molecule
-18%	.	2%	0.2%	Cn1c(=O)n(C)c2cc(NC(=O)Cc3ccccc3[N+](=O)[O-])ccc21
12%	-10	-11%	1.3%	CCO/N=C(/C)c1c(O)c(C)c(-c2ccccc2)n(-c2ccccc2)c1=O
25%	0	16%	3.4%	Cc1nn(-c2ccccc2)c(Cl)c1C1C(C#N)=C(N)OC2=C1C(=O)CC(C)(C)C2 (stereo not given)
?	-28	-12%	?	COc1ccc(N/C=C/c2nc(SC)nnc2C)cc1
0%	2	-52%	0.3%	COCn1c(-c2ccc(OC)c(OC)c2)nc2ccccc21
-11%	.	.	1.3%	CC(Oc1ccccc1)C(=O)OCC(=O)NC(=O)NC1CCCCC1 (stereo not given)
?	-8	5%	-2.4%	CC(C)(C)NC(=O)C(c1ccc(O)cc1)N(C(=O)CCC(=O)Nc1nccs1)c1cccc(F)c1 (stereo not given)
-1%	-3	-30%	-2.5%	Cc1ccc(NC(=O)NCc2ccc3c(c2)OCO3)cc1
0%	.	.	-2.1%	O=C(COC(=O)/C=C/c1ccco1)NCc1ccc(Cl)cc1Cl
42%	.	1%	-2.3%	O=C(NCCc1ccccc1)C(c1ccc(F)cc1)N(C(=O)c1csnn1)C1CC1 (stereo not given)
-1%	-9	-60%	5.5%	Cc1ccc(-c2noc(CNc3ccccc3)n2)cc1
-1%	.	.	-1.1%	CC(=O)NC(CC(=O)Nc1ccc(S(=O)(=O)N2CCOCC2)cc1)c1ccccc1 (stereo not given)
26%	.	.	2.9%	O=C(Nc1nnc(-c2ccc(F)cc2)o1)C1CCCN1S(=O)(=O)c1cccs1 (stereo not given)
8%	.	-2%	1.1%	O=C(C1CCCN(C2CC(=O)N(c3ccc(Cl)cc3)C2=O)C1)N1CCCC1 (stereo not given)
-16%	.	.	?	CC(C)C[C@H]1CN=C(N(C)C)N1CC1CCCCCC1
20%	-3	-5%	3.5%	CCc1ccccc1NC(=O)N1CCC(NC(=O)C(Cc2ccc(OC)c(OC)c2)NC(C)=O)CC1 (stereo not given)
40%	-15[21.1 µM]	2%	5.7%	O=C1c2ccccc2NC(c2cccc(O)c2)N1NS(=O)(=O)c1ccccc1 (stereo not given)
-10%	11	-3%	0.1%	CNCc1nc2ccccc2[nH]1
-21%	.	9%	?	O=C1C(Cl)=C(N2CCCC2)C(=O)N1c1ccc(F)cc1
6%	-4	-41%	0.8%	N/C(CN1CCCC1=O)=N\OC(=O)c1ccccc1Cl
-9%	0	-33%	-0.7%	Cc1ccc(-n2c(SCC(=O)N3CCOCC3)nnc2-c2cccnc2)cc1
6%	-10	-12%	2.0%	Cc1oc(-c2ccccc2)cc1C(=O)NC(Cc1c[nH]c2ccccc12)C(=O)O (stereo not given)
?	1	-17%	?	N#CC1=C(N)SC(N)=C(C#N)C1c1cccc(O)c1
13%	.	.	-0.2%	CSCCC(NC(=O)c1ccc(Cl)cc1Cl)C(=O)N(C)Cc1nc2ccccc2c(=O)[nH]1 (stereo not given)
1%	-2	-4%	-0.7%	CCCCOc1ccc(/C=C/C(=O)Nc2ccc([N+](=O)[O-])cc2C)cc1
-20%	.	.	2.3%	O=C(COC(=O)CNS(=O)(=O)c1ccc(Br)cc1Cl)NC1CCCC1
-5%	7	-3%	1.3%	CCOC(=O)N1CCN(CC(=O)Nc2sccc2C#N)CC1
29%	.	-3%	-1.9%	CCOc1ccc(CN2CCN(C3CCC3)CC2CCO)cc1 (stereo not given)
?	.	3%	?	CCN1CCc2c(sc(NC(=O)c3ccc(S(=O)(=O)N(C)CC4CCCO4)cc3)c2C(N)=O)C1 (stereo not given)
27%	-11	17%	-4.2%	COc1ccc(N2CCN(C(=O)c3cn(C4CCCC4)c(=O)c4c3c3ccccc3n4C)CC2)cc1
1%	.	.	4.8%	COc1cccc(NC(=O)CN(C)C(=O)Cc2cccc3ccccc23)c1
5%	.	-26%	0.8%	Cn1c2ccc(F)cc2c2nnc(SCCN3CCOCC3)nc21
?	4	0%	?	O=c1cc(O)c2sc3nc(-c4cccnc4)cc(C(F)(F)F)c3c2[nH]1
-12%	.	4%	0.1%	CC(=O)N1c2ccc(S(=O)(=O)N3CCCC3C(=O)NCc3ccc(Cl)cc3)cc2CC1C (stereo not given)
-19%	.	-4%	5.7%	Cc1noc(C)c1S(=O)(=O)N1CCCC1C(=O)O (stereo not given)
-11%	-5	-37%	-2.4%	COc1ccc(C)cc1NC(=O)c1ccc2c(c1)OCO2
-12%	-7	-28%	0.0%	O=C(c1ccc(COc2ccccc2Br)cc1)N1CCCCC1
-3%	-2	-7%	?	COc1ccc(C(=O)NC2(C(F)(F)F)NC(=O)N(CCCc3ccccc3)C2=O)c(OC)c1OC (stereo not given)
-11%	-12	-3%	3.0%	COc1ccc(C2(C(N)=O)CCCCC2)cc1OC
-15%	.	.	0.1%	CC(OC(=O)CN1C(=O)c2ccccc2C1=O)C(=O)c1ccccc1 (stereo not given)
41%	-27	14%	-2.7%	COc1cc(/C=C/C(=O)OCC(=O)NC(=O)NC(C)C)cc(S(=O)(=O)N2CCc3ccccc32)c1OC
18%	.	18%	0.2%	Cn1nccc1C(=O)NC1CCCc2c1cnn2-c1ccc(F)cc1F (stereo not given)
11%	.	.	-0.8%	COc1ccc(C(=O)N2CCN(C(=O)C3CCCO3)CC2)cc1[N+](=O)[O-] (stereo not given)
-2%	-3	-17%	1.1%	Cc1cc(C(=O)CSc2nnc(-c3ccccc3)n2C)c(C)n1C
.	?	-20%	.	CSc1ccc(CNc2ccccc2)cc1
13%	-6[21.1 µM]	13%	0.8%	CC(C)CC1CC(C)(c2csc(NNC(=O)c3ccccc3)n2)OC1=O (stereo not given)
-14%	.	.	-1.2%	Cc1cc(Br)c(NC(=O)COC(=O)CC2CC3CCC2C3)c(Br)c1 (stereo not given)
-3%	3	-2%	-1.5%	CCOc1ccc(C(=O)NC(=S)Nc2cccnc2)cc1[N+](=O)[O-]
13%	-1	-4%	-2.1%	NC(CC(=O)O)c1ccc(F)cc1 (stereo not given)
.	-1	-3%	.	Cc1nc(N2CCN(c3ccccc3)CC2)c2c3c(sc2n1)CCC3

Looked up by compound from above, 4 records:
Rango dissoc inh	GLA inh pH 4.5	miR-21 reporter	Rango complex inh	molecule
-19%	.	-4%	5.7%	Cc1noc(C)c1S(=O)(=O)N1CCCC1C(=O)O (stereo not given)
.	?	-20%	.	CSc1ccc(CNc2ccccc2)cc1
5%	.	-26%	0.8%	Cn1c2ccc(F)cc2c2nnc(SCCN3CCOCC3)nc21
?	4	0%	?	O=c1cc(O)c2sc3nc(-c4cccnc4)cc(C(F)(F)F)c3c2[nH]1

(more compounds)
Rango dissoc inh	GLA inh pH 4.5	miR-21 reporter	Rango complex inh	molecule
15%	.	-30%	-3.8%	CN(c1ccccc1)S(=O)(=O)c1ccc(C(=O)NCCc2ccccc2)cc1
3%	2	-2%	-6.8%	COc1ccc(Cn2cc(F)c(=O)n(C)c2=O)cc1[N+](=O)[O-]
1%	.	.	-0.3%	COC1CCC2(C)C(=CCC3C4CC(O)CC4(C)CCC32)C1 (stereo not given)
6%	8	-6%	1.3%	Cc1cc(Nc2cnc3ccccc3n2)n(-c2ccccc2)n1
-16%	?	0%	?	Cc1cc(C)c2c(n1)nn1c(NCCN3CCOCC3)cc(C)nc21
-13%	7	-13%	-0.2%	C#CCNC(=O)C1=C[C@@H](C)C[C@@H](OCc2ccc(CO)cc2)O1
0%	.	-13%	2.1%	Cc1ccccc1Nc1nc(-c2cccnc2)cs1
-6%	.	-44%	2.0%	C#CCn1cccc(C(=O)Nc2ccc(OC)cc2)c1=O
.	-8	-7%	.	COC(=O)c1cc(OC)c(OC)cc1NC(=O)c1ccoc1C
7%	.	.	-0.7%	COc1ccc(N2CC(C(=O)NCc3n[nH]c(=O)c4ccccc34)CC2=O)cc1 (stereo not given)
-3%	.	10%	-1.3%	CN(C)c1cccc(C(=O)N2CCCC(CCC(=O)N3CCN(c4ccccn4)CC3)C2)c1 (stereo not given)
22%	-3	0%	0.6%	COc1ccc(C(=O)NCC(C)(C)SCc2c(C)cc(C)cc2C)cc1
8%	-12	-50%	0.0%	Nc1ccc(-n2cnc3cc([N+](=O)[O-])ccc32)cc1
13%	-2	7%	0.7%	CC1CCN(CCc2nc3cc(NS(=O)(=O)c4ccc(F)cc4)ccc3n2C)CC1
-4%	0	-10%	-0.3%	COc1ccc(/C=N/NC(=O)c2cc(C34CC5CC(CC(C5)C3)C4)[nH]n2)cc1O
-11%	4	-2%	-4.8%	CCN(CC)C(=O)c1cn(-c2ccccc2)nc1-c1ccc2c(c1)OCCO2
8%	10	1%	2.2%	CCOc1ccccc1-n1c(SCC(=O)N2CCCC2)nnc1-c1ccoc1C
-15%	7	1%	3.0%	COC(=O)c1[nH]c2ccc(C)cc2c1NC(=O)NC1CCCCC1
22%	-1	11%	3.6%	C=CC(=O)NN(C)c1ncc(C(F)(F)F)cc1Cl
0%	2	-2%	0.2%	Cc1cccc(NC(=O)CSc2nc(N)c(NC(=O)c3cccs3)c(=O)[nH]2)c1C
-1%	3	0%	-4.6%	CCn1ncc(CN2CCCC(CNC(=O)c3ccc(F)cc3)C2)c1C (stereo not given)
12%	.	.	1.5%	CCC1(c2ccc(F)cc2)NC(=O)N(CC(=O)N2CCN(C(=O)c3cccs3)CC2)C1=O (stereo not given)
0%	-1	-26%	2.1%	CCOC(=O)c1c(C)[nH]c(C(=O)Cn2nnc(-c3ccccc3Cl)n2)c1C
8%	-5	0%	-3.6%	O=C(CSc1nncs1)NCCCc1ccccc1
8%	-7	-1%	-0.3%	CCc1ccc(NC(=O)Cn2c(SC)nc3ccccc32)cc1
3%	-28	-3%	-1.1%	CCCCCCCc1c(O)nc(SCCN2CCOCC2)[nH]c1=O
0%	.	1%	0.2%	O=C(CSc1nc2c([nH]c3ccccc32)c(=O)n1-c1ccccc1F)NCC1CCCO1 (stereo not given)
-9%	5	-22%	0.3%	S=c1[nH]cc(-c2ccc(Cl)cc2)n1Cc1ccccc1
7%	.	.	-0.6%	Cn1c(=O)c2c([nH]c(=O)n2C)n(Cc2ccccc2)c1=O
-6%	-8	-2%	0.6%	Cc1cc(C)c2[nH]c(=O)c(CN(CC3CCCO3)C(=O)c3cnccn3)cc2c1 (stereo not given)
7%	.	-2%	3.5%	Cc1ccc(NC(=O)COC(=O)C2C3CC4OC(=O)C2C4C3)cc1Cl (stereo not given)
8%	.	22%	-0.4%	COc1ccc(N2CCN(S(=O)(=O)c3ccc4c(c3)NC(=O)C(C)S4)CC2)cc1 (stereo not given)
-18%	1	-1%	-1.2%	Cc1cc(Cl)c(S(=O)(=O)Nc2ccc3c(c2)OCO3)cc1OCC(N)=O
5%	.	-50%	-0.2%	CCc1sc(C(=O)Nc2ncccc2O)cc1C
16%	-6	-3%	0.7%	Cc1csc(NC(=O)C2C3C=CC(O3)C2C(=O)O)n1 (stereo not given)
8%	6	-5%	2.6%	NC(=O)CSc1nnc(-c2cccnc2)n1CCc1ccccc1

Of the compounds above, these contain a COOH group:
Rango dissoc inh	GLA inh pH 4.5	miR-21 reporter	Rango complex inh	molecule
6%	-10	-12%	2.0%	Cc1oc(-c2ccccc2)cc1C(=O)NC(Cc1c[nH]c2ccccc12)C(=O)O (stereo not given)
-19%	.	-4%	5.7%	Cc1noc(C)c1S(=O)(=O)N1CCCC1C(=O)O (stereo not given)
13%	-1	-4%	-2.1%	NC(CC(=O)O)c1ccc(F)cc1 (stereo not given)
16%	-6	-3%	0.7%	Cc1csc(NC(=O)C2C3C=CC(O3)C2C(=O)O)n1 (stereo not given)

Assay outcomes as filed in PubChem.
